Source: PubChem (National Center for Advancing Translational Sciences (NCATS))
VDR inh: vitamin D3 receptor (human) inhibition; VDR-SRC2-3 peptide fluorescence polarization, 2 h; actives 0.93% (n = 400,000); Potency, µM, inactives show max response, negative = inhibition, usual class: inhibitors; active = well fitted inhibition curve with a large enough effect; inconclusive = small, poorly fitted or top-dose-only effect, or another doubt; inactive = no such curve, though single readings can be large or run the other way; also: series mostly up to about 120 µM
Target sequence (P11473 whole entry, looked up): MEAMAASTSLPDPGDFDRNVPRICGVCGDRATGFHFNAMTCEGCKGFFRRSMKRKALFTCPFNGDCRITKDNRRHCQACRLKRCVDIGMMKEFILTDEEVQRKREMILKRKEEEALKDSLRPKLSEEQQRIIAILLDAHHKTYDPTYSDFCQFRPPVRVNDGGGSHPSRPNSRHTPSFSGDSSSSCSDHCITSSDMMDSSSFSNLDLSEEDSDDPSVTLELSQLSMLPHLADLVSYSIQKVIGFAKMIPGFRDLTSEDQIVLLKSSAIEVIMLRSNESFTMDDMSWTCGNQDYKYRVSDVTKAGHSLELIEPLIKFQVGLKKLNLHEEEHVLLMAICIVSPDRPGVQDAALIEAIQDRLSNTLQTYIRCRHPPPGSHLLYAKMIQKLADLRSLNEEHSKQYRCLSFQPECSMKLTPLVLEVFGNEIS
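FP read-out; VDR + SRC2-3 coactivator peptide; 23 nl compound by pintool; 2 h RT incubation; reagents held at 4 deg C, protected from light.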
An asterisk follows results filed as active; u = inconclusive; & = joins results of further samples. % is scaled to controls: 0 for no effect and ±100 for the full control effect; potency is read from the fitted curve at half-maximal effect. An excerpt, so the mix of outcomes need not match the whole.

SMILES	VDR inh
O=C(O)C1c2ccccc2C(=O)N(Cc2ccc(F)cc2)C1c1ccncc1 (configuration not stated)	-22.6%
N#Cc1cccnc1N1CCN(C(=O)c2cccc3c2C(=O)c2ccc(-c4ccc(Cl)c(C(F)(F)F)c4)cc2S3(=O)=O)CC1	10.6%
O=C(CSc1ccc2ccccc2n1)Nc1nsc(-c2ccc(Cl)cc2)n1	15.0%&3.6%
COc1cc(/C=C(/C#N)c2nc3ccccc3c(=O)[nH]2)ccc1O	10.6%
COc1ccccc1CNc1ccc(-c2nc(-c3cccc(C)c3)no2)cc1[N+](=O)[O-]	6.6%
Nc1nccnc1C(=O)N/N=C/c1ccco1	19.9%
CCOC(=O)/C(=C/Nc1ccc(F)cc1)[N+](=O)[O-]	-17.4%
CN(Cc1ccccc1)C(=O)c1ccccc1NC(=O)c1ccco1	-20.2%
CC(C)(Oc1ccc(Cl)cc1)C(=O)OCC(=O)N1CCCC1	-18.3%
O=c1[nH]cnc2c1cnn2Cc1ccccc1Cl	1.9%
Cc1oc(CN2CCOCC2)cc1C(=O)O	-3.2%
O=C(O)C12CC3CC(C1)CC(n1cnc(Cl)n1)(C3)C2	-1.5%
CC(=O)[C@@H]1[C@@H](C(=O)c2ccc(C)cc2)[C@]2(C(=O)Nc3ccccc32)[C@H]2C=Cc3cc(F)ccc3N12	-8.4%
OC(COc1ccc2c(c1)OCO2)CN1CCc2ccccc2C1 (configuration not stated)	14.7%
O=C(Nc1ccc(-c2ccc3nncn3n2)cc1)C1CCCCC1	0.2%
COc1ccc(NC(=O)c2cc(-c3ccccc3)on2)cc1	4.7%
O=C(O)c1nnn(-c2ccc(F)cc2F)c1-c1ccccc1	-26.3%
CCN(CC(=O)NCc1cccs1)C(=O)c1ccc(Cl)c(Cl)c1	-14.9%
O=C(/C=C/c1ccccc1)NC1CCS(=O)(=O)C1 (configuration not stated)	-13.0%
O=S(=O)(NCCCc1ccccc1)c1ccc(Br)cc1	-21.6%
COC(=O)N/N=C/c1c(C)cc(C)cc1C	-24.1%
O=C(NC(=S)NCc1cccnc1)c1ccc([N+](=O)[O-])cc1	0.5%
COc1cc(OC)c(C(=O)NCCCN2CCOCC2)cc1OC	3.9%
CN(C(=O)c1cc2c(s1)-c1ccc(Cl)cc1SC2)c1cccc(C(F)(F)F)c1	11.0%
CCc1ccc(OCC(=O)NNC(=O)C2CCC2)cc1	-6.0%

By substructure: the entries above with four or more nitrogen atoms (seven)
SMILES	VDR inh
N#Cc1cccnc1N1CCN(C(=O)c2cccc3c2C(=O)c2ccc(-c4ccc(Cl)c(C(F)(F)F)c4)cc2S3(=O)=O)CC1	10.6%
O=C(CSc1ccc2ccccc2n1)Nc1nsc(-c2ccc(Cl)cc2)n1	15.0%&3.6%
COc1ccccc1CNc1ccc(-c2nc(-c3cccc(C)c3)no2)cc1[N+](=O)[O-]	6.6%
Nc1nccnc1C(=O)N/N=C/c1ccco1	19.9%
O=c1[nH]cnc2c1cnn2Cc1ccccc1Cl	1.9%
O=C(Nc1ccc(-c2ccc3nncn3n2)cc1)C1CCCCC1	0.2%
O=C(NC(=S)NCc1cccnc1)c1ccc([N+](=O)[O-])cc1	0.5%

Next records
SMILES	VDR inh
Cc1ccoc1C(=O)N1CCCC(CCC(=O)N2CCN(c3ccccn3)CC2)C1 (configuration not stated)	4.0%
C[C@H](CO)N1C[C@H](C)[C@@H](CN(C)CC2CCCCC2)Oc2c(NS(=O)(=O)c3cn(C)cn3)cccc2C1=O	2.4%
O=C(CCN1C(=O)C2C3C=CC(C4CC34)C2C1=O)Nc1ccc(Cl)cc1O (configuration not stated)	-10.3%
Cc1cc(C)c(NC(=O)CCCOC(=O)C2=COCCO2)c(C)c1	-2.8%
COc1ccc(S(=O)(=O)N2CCCCC2)cc1NC(=O)c1cccs1	-1.8%
CN(CC(=O)Nc1ccc(F)c(F)c1F)C(=O)c1n[nH]c(=O)c2ccccc12	-16.9%
CC(C)NCCOCCOc1ccc(Cl)cc1Br	0.4%
COc1ccc(NC(=O)C/C(C)=N/NC(=O)c2cnccn2)cc1Cl	-6.1%
CSc1ccc(/C=C/C(=O)OCC(=O)NC(C)C)cc1	12.0%
Cc1ccc(C)n1-c1nnc(N2CCCC(C(=O)NCc3ccc(Cl)cc3)C2)s1 (configuration not stated)	4.9%
O=S(=O)(c1cccc(F)c1)N1CCN(Cc2ccc3c(c2)OCO3)CC1	-4.4%
CCOc1cccc(CN2CCCC(C(=O)Nc3ccc(-c4ccn[nH]4)cc3)C2)c1O (configuration not stated)	-4.5%
COCCn1c(C)cc(C(=O)COC(=O)c2cccnc2SC)c1C	u
Cc1ccc(-c2nc(CS(=O)CC(=O)O)c(C)o2)cc1 (configuration not stated)	15.6%
CC/C(=N\Nc1ccc([N+](=O)[O-])cc1[N+](=O)[O-])c1ccc(O)cc1	-14.6%
COc1cc(CNCCc2ccc(F)cc2)ccc1OCc1ccc(Cl)nc1	6.6%
Cc1ccc(-c2nnn(CC(=O)N(Cc3cccs3)C(C(=O)NC(C)(C)C)c3ccco3)n2)o1 (configuration not stated)	-12.5%
O=C(O)CSCC(=O)N1CCN(S(=O)(=O)c2ccccc2)CC1	7.6%
Cc1ccc(NC(=O)CSc2nc(-c3ccco3)nc3cc(=O)[nH]n23)c(Cl)c1	-4.0%
Cc1ccc(C(=O)CNc2ccc(Br)cc2)cc1	-1.7%
Cc1cccc(NC(=O)CCNS(=O)(=O)c2cccc3nsnc23)c1	-9.4%
O=C(C[n+]1cccc2ccccc21)c1ccc(Cl)cc1	14.7%
N#C/C(=C\c1c(N2CCCCC2)nc2ccccn2c1=O)S(=O)(=O)c1ccccc1	-17.2%
O=C(c1ccccc1CCc1ccccc1)N1CCOCC1	-4.3%
CN1/C(=C\C(=O)COC(=O)C2COc3ccccc3O2)C(C)(C)c2ccccc21 (configuration not stated)	21.5%

Reprinted at random: four entries already listed.
SMILES	VDR inh
Cc1cc(C)c(NC(=O)CCCOC(=O)C2=COCCO2)c(C)c1	-2.8%
COc1ccc(NC(=O)C/C(C)=N/NC(=O)c2cnccn2)cc1Cl	-6.1%
O=C(CCN1C(=O)C2C3C=CC(C4CC34)C2C1=O)Nc1ccc(Cl)cc1O (configuration not stated)	-10.3%
O=C(O)CSCC(=O)N1CCN(S(=O)(=O)c2ccccc2)CC1	7.6%

Following part.
SMILES	VDR inh
COc1ccc(C(=O)Nc2ccc3oc(-c4ccc5ccccc5c4)nc3c2)cc1Br	-10.5%
COc1ccccc1NC(=O)Cc1nnc(SCC(=O)c2ccccc2)n1C	-11.1%
COc1ccc(/C=C/C(=O)c2cc(Br)ccc(=O)c2O)cc1	50.1µM*
CN(CC(=O)NCC1CCCCC1)S(=O)(=O)c1ccc(Cl)cc1	5.7%
CC(=O)OCCCCON1C(=O)c2ccccc2C1=O	1.8%
CCOC(=O)N1CCC(N(CCOC)C(=S)Nc2cccc(SC)c2)CC1	4.0%
CCN1CCN(C(=O)CSc2cc(=O)n(CC)c3ccccc23)CC1	5.3%
Nc1nc(NC2CC2)c2ncn([C@H]3C=C[C@@H](CO)C3)c2n1	3.6%
Fc1ccccc1NC(=S)N/N=C/c1ccccc1Br	-1.5%
O=C(NC(=S)NC1CCS(=O)(=O)C1)c1cccc([N+](=O)[O-])c1 (configuration not stated)	9.1%
C=CCn1c(=O)c(C(=O)NCCN(CC)CC)c(O)c2ccccc21	-9.4%
CNC(=O)/C(C#N)=C/c1c(N2CCN(c3cccc(Cl)c3)CC2)nc2c(C)cccn2c1=O	-15.1%
COc1ccc(NS(=O)(=O)c2cccc(C(=O)NCC(c3ccccc3)N(C)C)c2)cc1 (configuration not stated)	-23.3%
COc1ccc(C(=O)NC(=S)Nc2ccccc2N2CCOCC2)cc1[N+](=O)[O-]	-6.6%
Cc1c(CC(=O)NCCc2ccccc2F)c(=O)oc2c(C)c3occ(C(C)(C)C)c3cc12	7.9%
CCOc1ccc(N2CC(C(=O)NCc3ccccc3)CC2=O)cc1 (configuration not stated)	14.9%
O=C1OCCN1C(=O)[C@H]1[C@H](c2ccc([N+](=O)[O-])cc2)C(c2ccc(F)cc2)=NN1c1ccc(Br)cc1	5.6%&-9.8%
O=C(O)c1ccccc1NC(=S)NC(NC(=O)c1ccccc1[N+](=O)[O-])C(Cl)(Cl)Cl (configuration not stated)	u
O=C(O)C1CCCNC1 (configuration not stated)	0.9%&-15.1%
CCOC(=O)c1ccc(NC(=O)CCc2c(C)n(CC)c3cc(-c4ccccc4OC)nn3c2=O)cc1	-12.8%
Cc1nnc(SCCC(=O)Nc2ccccc2Cl)o1	-23.1%
CC1=C(C(=O)Nc2cccc(C(=O)NC(C)C)c2)SCCO1	5.3%
O=C(NC1CCCc2c1cnn2-c1ccc(F)cc1F)c1ccccc1N1CCOCC1 (configuration not stated)	1.6%
N#Cc1ccccc1OCC(=O)NCC(c1cccs1)N1CCOCC1 (configuration not stated)	-6.8%
CCCc1cc(=O)n2[nH]c(SCc3ccc(Cl)cc3)nc2n1	-24.3%
Further results.
SMILES	VDR inh
Nc1ccc(Sc2nc3ccccc3[nH]2)cc1	4.9%
N#Cc1ccsc1NC(=O)c1ccc(Cl)c([N+](=O)[O-])c1	0.8%
Cc1ccc([N+](=O)[O-])c(C)[n+]1C	3.5%
Cc1ccc(-c2nc(CS(=O)(=O)CC(=O)NC3CCCCC3C)c(C)o2)cc1 (configuration not stated)	-9.4%
Nc1c(Cl)cc(-c2csc(N3CCCC3c3nc4cc(Cl)c(N5CCCCC5)cc4n3CCOCCO)n2)cc1Cl (configuration not stated)	-6.5%
Cc1ccc(Cl)cc1NC(=O)C1CC1c1ccccc1 (configuration not stated)	2.5%
Cc1ccc(-c2nnc(Nc3ccc(C(=O)N(C)C)cc3)c3ccccc23)cc1S(=O)(=O)N(C)C	-19.3%
COc1ccccc1NCC(=O)NC(=O)NC1CCCCC1	-8.9%
Cc1nn(C)cc1/C=N\NC(=O)c1ccc(Cn2cc(Cl)cn2)cc1	8.1%
CSCC[C@H](NC(=O)C1=NN(c2c(F)c(F)cc(F)c2F)C(=O)CC1)c1nc2ccccc2[nH]1	-6.6%
CCN(C(=O)COC(=O)C1CCN(S(=O)(=O)c2ccc3c(c2)OCCO3)CC1)C1CCS(=O)(=O)C1 (configuration not stated)	-8.3%
O=[N+]([O-])c1ccc(OCCCn2cncn2)cc1	-9.9%
COc1cc(/C=C2\SC(=S)N(c3cccnc3)C2=O)ccc1O	-16.2%
O=C(Nc1cnc2ccccc2c1)N1CCCCC1	2.2%
Cc1cc2c(cc1C)NC(CC(=O)Nc1ccccc1SC(F)(F)F)C(=O)N2 (configuration not stated)	5.1%
COc1ccc(-c2csc(NC(=O)CSc3nnnn3C)n2)cc1OC	12.9%
CCOc1ccc(-c2cc(CCCC(=O)NCCc3ccc(OC)c(OC)c3OC)no2)cc1	15.1%
Cc1nc(SCC(=O)Nc2c(C)n(C)n(-c3ccccc3)c2=O)n[nH]1	-13.9%
COc1cc2c(cc1OC)CN(c1nc(CN3CCCCC3)nc3sc4c(c13)CCCC4)CC2	-7.9%
CCOc1ccc2c(c1)C(=NNC(=O)c1ccccn1)c1cc(OCC)ccc1-2	-19.7%
COC(=O)C1=C(CN2CCCc3ccccc32)NC(=O)NC1c1ccc(F)cc1 (configuration not stated)	-2.1%
O=C(O)C12C3CCC(O3)C1(C(=O)O)C1CCC2O1 (configuration not stated)	-4.5%
CN(c1ccc(F)cc1)S(=O)(=O)c1ccc(Cl)c(C(=O)Nc2ccc3c(c2)CCC3)c1	-12.6%
COc1cc(/C=C(\C#N)c2nc3ccccc3[nH]2)cc(Cl)c1OCc1ccccc1Cl	-17.1%
CCc1cccc(NC(=O)c2cc3c(s2)-c2ccccc2OC3)c1	-4.9%
Remaining list, next part:
SMILES	VDR inh
O=c1[nH]cc(C(F)(F)F)cc1NS(=O)(=O)c1ccc([N+](=O)[O-])cc1	-12.3%
CC(=O)OC1c2ccccc2C(=O)N1Cc1ccccc1 (configuration not stated)	9.3%
CCCCNC(=O)C1CCN(Cc2ccc(OCc3ccccc3)cc2)CC1	3.9%
Cc1ccc(OCCCCn2c(CCNC(=O)C3CCCCC3)nc3ccccc32)cc1	-14.1%
O=C(c1ccccc1)N1CCN(C(=O)C2CC2)CC1	10.4%
CS(=O)(=O)c1ccc(Cl)c(NC(=O)C2CCCN(C(=O)c3ccc(Cl)cc3)C2)c1 (configuration not stated)	3.5%
COc1ccc(CNC(=O)C(Cc2ccccc2)NS(=O)(=O)c2ccc3c(c2)CCN3C(C)=O)cc1 (configuration not stated)	7.5%
Cn1c(=O)c2ncn(CC(=O)Nc3ccc4c5c(cccc35)CC4)c2n(C)c1=O	9.4%
c1ccc2c(c1)Sc1ccccc1N2CCN1CCCC1	4.4%
Cc1c(C(=O)OC/C(O)=C(\C#N)c2nc3ccccc3[nH]2)oc2ccccc12	-8.7%
CCOC(=O)c1c(NC(=O)COc2ccccc2F)sc2c1CC(C)(C)NC2(C)C	13.8%
CCCCn1c(N)c(N(Cc2ccccc2OC)C(=O)c2sccc2C)c(=O)[nH]c1=O	-3.5%
CC(=O)C1=C(O)C(=O)N(Cc2ccco2)C1c1ccc(F)cc1 (configuration not stated)	14.1%
CCNS(=O)(=O)c1ccc(Br)c(C(=O)OC(C)C(=O)NCC2CCCCC2)c1 (configuration not stated)	-3.5%
COc1ccc(C(=O)Nc2ccc(-c3nc4ccccc4s3)cc2C)cc1Cl	3.1%
C/C(CC(=O)Nc1ccccc1C)=N\NC(=O)Cc1csc(N)n1	-6.0%
CN(C)c1ccnc(Oc2ccc(F)cc2)c1C#N	-7.7%
COCC1CCCN(C(=O)c2ccc3oc(C(C)C)nc3c2)C1 (configuration not stated)	14.7%
CCN(CC)S(=O)(=O)c1ccc(C(=O)Nc2cc3oc4ccccc4c3cc2OC)cc1	4.5%
Cc1nc(-c2cccc(S(=O)(=O)N3CCC(C(=O)NCc4ccccc4Cl)CC3)c2)no1	15.8%
